High-throughput results deposited in PubChem BioAssay by Johns Hopkins Ion Channel Center.
CHT allo act – human CHT allosteric activation. B-score at 10 µM. hit rate 0.49% among 310,000. CHT-expressing cells, membrane potential dye, choline EC20; hits give high values; LV-AA mutant CHT in HEK293 cells. AID 488977. Q9GZV3;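 active means initial fluorescence not abnormally high and integrated response B-score, plate-corrected, over 3 SD above library mean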
Target sequence (Q9GZV3 whole entry, looked up): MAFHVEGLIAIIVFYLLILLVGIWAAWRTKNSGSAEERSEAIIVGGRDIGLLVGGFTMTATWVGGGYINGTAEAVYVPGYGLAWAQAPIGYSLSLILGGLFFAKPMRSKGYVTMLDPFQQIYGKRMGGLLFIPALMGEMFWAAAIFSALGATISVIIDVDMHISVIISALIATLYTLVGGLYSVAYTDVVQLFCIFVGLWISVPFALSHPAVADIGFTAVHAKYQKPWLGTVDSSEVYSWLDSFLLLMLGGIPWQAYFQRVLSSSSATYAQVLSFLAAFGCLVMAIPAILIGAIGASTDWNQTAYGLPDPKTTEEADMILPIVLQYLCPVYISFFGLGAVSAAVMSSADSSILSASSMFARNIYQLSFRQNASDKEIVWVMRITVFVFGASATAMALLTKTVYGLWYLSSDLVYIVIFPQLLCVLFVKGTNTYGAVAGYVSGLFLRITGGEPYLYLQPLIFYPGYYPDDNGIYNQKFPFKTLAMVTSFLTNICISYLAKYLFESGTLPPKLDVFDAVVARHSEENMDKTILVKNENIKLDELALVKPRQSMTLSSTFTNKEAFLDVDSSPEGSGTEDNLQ
Calls only; i = inactive.

Molecule	CHT allo act
COc1ccc(-n2c(SCC(N)=O)nc3nc4c(cc3c2=O)COC(C)(C)C4)cc1	i
O=S1(=O)CC(O)C(Nc2ccc(Cl)cc2)C1 (stereo not drawn)	i
CCOC(=O)c1c(N2C(=O)C=CC2=O)sc(C)c1C	i
Cn1c(SCC(=O)c2ccc3c(c2)OCO3)nnc1C1COc2ccccc2O1 (stereo not drawn)	i
CSc1sc(C(=O)NC(=O)NCc2cccnc2)c(C)c1-c1ccon1	i
COc1ccc(/C=C/C(=O)OCC(=O)NCc2ccco2)cc1OC	i
Cn1c(=O)c2ccccc2n(CC(=O)NC2CCCC2)c1=O	i
Cc1cc(OCCCn2ccnc2)cc(C)c1Cl	i
Cc1nn(C)c(C(=O)Sc2ccccc2)c1[N+](=O)[O-]	i
CCOC(=O)/C(N=Nc1ccc(F)cc1)=C(/O)c1ccc([N+](=O)[O-])cc1	i
Cc1ccc(C(=O)CSc2nnc3c4ccccc4nc(Cc4ccccc4)n23)cc1	i
O=C(O)C1CCCCC1C(=O)Nc1ccc(-c2ccccc2)cc1 (stereo not drawn)	i
Cc1ccc(C(=O)NCC(=O)OCC(=O)Nc2ccc3[nH]c(=O)[nH]c3c2)cc1	i
CS(=O)(=O)c1sc2nc(-c3ccccc3)cc(-c3ccccc3)c2c1N	i
CCN(CC)S(=O)(=O)c1cccc(C(=O)NC(C(=O)NC2=NCCS2)C(C)C)c1 (stereo not drawn)	i
Cc1noc(C)c1S(=O)(=O)N1CCC(Cc2ccccc2)CC1	i
COc1ccc(OC)c(-n2nnnc2SCC(=O)N2CCN(C(=O)c3ccco3)CC2)c1	i
Cc1cc(=O)oc2cc(OCC(=O)OCC(=O)Nc3ccc(C(C)C)cc3)ccc12	i
COc1ccc(C2(CNC(=O)c3ccc(OCC(C)C)cc3)CCOCC2)cc1	i
CCN(CCO)c1ccc(-n2c(N)c(C(=O)OC)c3nc4ccccc4nc32)cc1	i
Cc1ccc(C(=O)Oc2coc(CSc3nnc(NC(=O)c4cccs4)s3)cc2=O)cc1C	i
COc1cc(C)ccc1NC(=O)c1ccc(S(=O)(=O)N2CCOCC2)cc1	i
O=[N+]([O-])c1ccc(S(=O)(=O)Nc2nc3ccccc3nc2Nc2ccccc2)cc1	i
CCC/C(=N\NC(=O)c1ccccc1C)c1ccccc1	i
C=CCNC(=O)c1cn(CC)c2cc(N3CCN(C(=O)c4ccco4)CC3)c(F)cc2c1=O	i
CCCOC(=O)c1cc(-c2ccc(/C=C3/C(=O)N(C)C(=O)C(C#N)=C3C)o2)ccc1Cl	i
COc1ccc(/C=C/c2c(-c3ccc(OC)cc3)oc3ccccc23)cc1	i
COc1ccc(OC)c(C(c2nnnn2CCc2ccccc2)N2CCC(C(N)=O)CC2)c1 (stereo not drawn)	i
COc1ccc(-n2ccnc(SCC(=O)NCc3ccccc3Cl)c2=O)cc1	i
CCN1/C(=C\C(C)=O)Sc2ccc(OC)cc21	i
CCC(CC)C(=O)Nc1cc(C(=O)OC)cc(C(=O)OC)c1	i
O=c1ccc(-c2ccccc2)n[nH]1	i
CCc1ccc2c(COC(=O)CNS(=O)(=O)c3ccc(NC(C)=O)cc3)cc(=O)oc2c1	i
COc1ccc(C)cc1NC(=O)c1cc2c(CO)cnc(C)c2oc1=N	i
COc1cccc(NC(=O)N2CCN(S(C)(=O)=O)CC2)c1	i
Cc1ccc(COc2ccsc2C(=O)NNC(N)=S)cc1	i
Cc1c(CNCCc2ccc(Cl)cc2)c(C(=O)O)c(C)n1Cc1ccccc1	i
Cn1c(CNS(=O)(=O)c2cccc(Cl)c2)cc(=O)n(C)c1=O	i
c1ccc(CSc2nnc(NC3=NCCCCC3)s2)cc1	i
CCN(CC)c1cc(C)c2ccccc2n1	i
CCOC(=O)CC(NC(=O)c1cc2cccc(OC)c2oc1=O)c1ccc(OC)cc1 (stereo not drawn)	i
CC1CCCC(NC(=O)CCS(=O)(=O)c2cc3c(cc2Cl)NC(=O)CO3)C1C (stereo not drawn)	i
Cc1ccc(N(C)C(=O)CCS(=O)(=O)c2ccc3c(c2)oc(=O)n3C)cc1	i
COc1ccc(CN2CCN(Cc3c[nH]c4ccccc34)CC2CCO)cc1C (stereo not drawn)	i
Cc1nnc(SCC(=O)Nc2ccc(-c3nc4ccccc4s3)cc2)s1	i
O=C(CSc1nc2ccccc2c(=O)[nH]1)Nc1cccc([N+](=O)[O-])c1	i
COc1ccc(NC(=O)CSc2ccccc2)cc1S(=O)(=O)N1CCCCC1	i
CC(C)c1ccc(NC(=O)NC2CCCCC2)cc1	i
CCN(CCO)c1ccc(NC(=S)Nc2cccc(S(=O)(=O)N(C)C)c2)cc1	i
O=C(NCc1ccccc1Cl)c1ccc2nc[nH]c2c1	i

(continued)
Molecule	CHT allo act
CCCc1nc(SCC(=O)NNC(=O)C2CCCCC2)c2ccccc2n1	i
COc1ccc(/C=N\NC(=O)c2sc(N)nc2C)cc1OC	i
COc1ccc(C(c2oc(CO)cc(=O)c2O)c2oc(CO)cc(=O)c2O)cc1OC	i
COc1ccccc1-c1nnc(NC(=O)CCS(=O)(=O)c2ccccc2)o1	i
CCc1nnc(NC(=O)CSc2nnc(Cc3cccn3C)n2C)s1	i
COc1ccc(OC)c(NC(=O)CN2CCN(C(=O)c3ccco3)CC2)c1	i
CCOC(=O)c1cc(OC(=O)c2ccccc2OC)n(-c2ccccc2)n1	i
CCCCN1C(=O)c2ccc(C(=O)Nc3cccnc3)cc2C1=O	i
COC(=O)COc1ccc(S(=O)(=O)NC2CCCCCC2)cc1	i
CCCS(=O)(=O)N1CCc2ccc(NC(=O)c3ccccc3Cl)cc2C1	i
Cc1cnc(NC(=O)C2(c3ccccc3)CC2)s1	i
C#Cc1ccc([C@@H]2C=C(C(=O)NC3CC3)O[C@H](OCC)[C@H]2CCCO)cc1	i
C/C(=N\Nc1nc(C)cc(-c2ccccc2)n1)c1ccc(C)o1	i
O=C1c2ccccc2C(Nc2ccc3c(c2)OCCO3)N1c1ccccn1 (stereo not drawn)	i
CCN1CCN(c2cc(=O)n(Cc3ccc(F)cc3)c(=O)[nH]2)CC1	i
CCCS(=O)(=O)N1CCCC(C(=O)NCCc2ccc(Cl)cc2)C1 (stereo not drawn)	i
CCC(=O)c1cn(CC(=O)OC)c2ccccc12	i
CN(C)S(=O)(=O)c1ccc(C(=O)OCCN=C2NS(=O)(=O)c3ccccc32)cc1	i
O=C(COc1ccc2c(C(F)(F)F)cc(=O)oc2c1)NCc1cccs1	i
CCOC(=O)C1CCCN1C(=O)c1ccc(OC)c(Br)c1 (stereo not drawn)	i
CN1CCN(C(=O)c2cn(-c3ccccc3)nc2-c2cccnc2)CC1	i
S=C(NCc1ccc(Cl)cc1)N1CCN(c2ccccn2)CC1	i
CCCCSc1nnc2c(n1)OC=Nc1ccccc1-2	i
N#C/C(=C/c1ccc(OCc2ccccc2)cc1)C(=O)NC1CCCCC1	i
COCCn1c(SCC(=O)NC(=O)NC(C)C)nc2ccccc21	i

Reformatted with each value named: part of the list above.
CCCc1nc(SCC(=O)NNC(=O)C2CCCCC2)c2ccccc2n1
- CHT allo act = i

COc1ccc(/C=N\NC(=O)c2sc(N)nc2C)cc1OC
- CHT allo act = i

COc1ccc(C(c2oc(CO)cc(=O)c2O)c2oc(CO)cc(=O)c2O)cc1OC
- CHT allo act = i

Next section
Molecule	CHT allo act
O=C(Nc1ccccc1)c1ccc(-c2ccc([N+](=O)[O-])cc2)o1	i
CC(C)c1cc(C(=O)Nc2cccc(Cl)c2)no1	i
Cc1cc(C(=O)Nc2ccc(Nc3ccccc3)cc2)ccc1[N+](=O)[O-]	i
COc1ccc(C(=O)Nc2nc3ccc4nc(C)sc4c3s2)cc1	i
COc1ccc(/C=N/OCC(=O)N2CC3(C)CC2CC(C)(C)C3)cc1OC (stereo not drawn)	i
COC(=O)c1ccc(NC(=O)C(=O)N2CCN(C(=S)Nc3cccc(C)c3C)CC2)cc1	i
Cc1ccnc(NC(=O)c2cccc(NC(=O)COc3ccccc3)c2)c1	i
Cc1cccc(NC(=S)N2CCN(S(=O)(=O)c3ccc(F)cc3)CC2)c1	i
Nc1nc(-c2nc3ccccc3[nH]2)cs1	i
COc1ccc(OC)c(CN2CCN(C(=O)c3cc(S(=O)(=O)Nc4ccccc4OC)ccc3C)CC2)c1	i
CC(=O)NC1CC2CCCC(C1)N2C(=O)Nc1ccc(Cl)c(C(F)(F)F)c1 (stereo not drawn)	i
O=C(COC(=O)CCS(=O)(=O)c1ccc(Cl)cc1)NC1CCCCC1	i
O=C(CNC(=O)c1ccc(OC(F)F)cc1)NCc1ccccn1	i
O=C(Nc1ccc(Cl)cc1)c1ccc2c(c1)S(=O)(=O)c1ccccc1C2=O	i
CCC1COCCS(=O)(=O)N1Cc1cccc(C(F)(F)F)c1 (stereo not drawn)	i
COc1ccc(/C=N/NC(=O)CNC(=O)/C=C/c2ccccc2OC)cc1	i
Cc1ccc(S(=O)(=O)N2CC(O)CC2C(=O)O)cc1 (stereo not drawn)	i
CCn1c(SCC(=O)Nc2ccc(F)cc2)nc2ccccc2c1=O	i
CCC(=O)c1ccc(OCC(=O)OCC(=O)Nc2c(C)n(C)n(-c3ccccc3)c2=O)cc1	i
COCCN(CC1CCCN(C2Cc3ccccc3C2)C1)C(=O)CCC(N)=O (stereo not drawn)	i
O=C(CCN1C(=O)C2C3C=CC(C3)C2C1=O)Nc1ccccc1F (stereo not drawn)	i
CC(Sc1nnnn1C)C(=O)Nc1ccc2c(c1)OCCO2 (stereo not drawn)	i
COc1ccccc1N1CCN(C(=S)Nc2ccc3nc(N4CCOCC4)cc(C)c3c2)CC1	i
COc1ccc(NC(=O)CSc2nc3ccsc3c(=O)n2CCC(=O)O)c(OC)c1	i
CCN(CC)S(=O)(=O)c1ccc(N)cc1	i
CCOc1ncccc1C(=O)Nc1ccc(-c2ccc3nnc(C)n3n2)cc1	i
CCOC(=O)c1cnc(-n2cc(C)cn2)nc1Nc1ccccc1OCC	i
O=C(NC(Cc1ccccc1)C(=O)O)/C(=C\c1ccccc1)NC(=O)c1ccco1 (stereo not drawn)	i
c1ccc(OCc2nn3c(-c4n[nH]c5c4CCC5)nnc3s2)cc1	i
O=C1CC(N2CCSCC2)C(=O)N1c1cccc(Br)c1 (stereo not drawn)	i
O=C(CCl)N(C/C=C/c1ccccc1)c1ccc2c(c1)OCCO2	i
CCOC(=O)c1[nH]c2ccc(OC)cc2c1NC(=S)N1CCN(c2ccc(F)cc2)CC1	i
CN(CC(=O)NCCc1ccc(S(N)(=O)=O)cc1)Cc1c(F)cccc1Cl	i
Cc1ccc(-c2nn(CC(=O)Nc3ccc4c(c3)nc3n4CCOC3)c(=O)c3ccccc23)cc1	i
CCOC(=O)c1cnn(-c2ccccc2)c1-n1cccc1C(=O)C(=O)Nc1ccccc1C(F)(F)F	i
N#CC1(NC(=O)COC(=O)CSc2ccc(F)cc2)CCCCC1	i
CCN1CCN(CCCN(Cc2cccs2)C(=S)Nc2ccccc2C)CC1	i
CC1=CC(c2ccccc2)n2nc(N)nc2N1 (stereo not drawn)	i
COc1ccccc1NC(=O)C(C)N1CCN(C/C=C/c2ccccc2)CC1 (stereo not drawn)	i
COc1ccc(CCNC(=O)/C=C/c2cc(OC)c(OC)c(OC)c2)cc1OC	i
CCOC(=O)c1ccc(CNC(=O)C(Cc2c[nH]c3ccccc23)NC(C)=O)o1 (stereo not drawn)	i
CCOC(=O)C1(Cc2cccc(OC)c2)CCN(Cc2csc(C(C)=O)c2)CC1	i
CCOC(=O)c1cc2c(ccn2C)n1CC(=O)N1CCC(C)CC1	i
CCCCOC(=O)Nc1nnc(Cc2ccc(Cl)cc2)s1	i
CCOC(=O)c1nnn(CC(=O)N2N=C(c3cc(C)ccc3C)CC2c2ccc(OC)cc2)c1C(=O)OCC (stereo not drawn)	i
O=C(c1cc(Cl)ccc1Cl)N1CCOCC1	i
O=C(Nc1nc2c(s1)CCCC2)c1ccc(Br)o1	i
COc1cc(/C=N/O)cc(Br)c1OS(=O)(=O)c1ccc(C)cc1	i
Cc1ccc(CN(Cc2ccco2)C(=S)NCC(=O)NC2CC2)cc1	i
Cc1ccc(C)c(Nc2ccc(C(=O)NCCc3ccccc3)cn2)c1	i

Following part
Molecule	CHT allo act
Cc1nn(Cc2ccccc2Cl)c(C)c1NC(=O)c1ccn(C)n1	i
O=C(Nc1nc2ccc(Cl)cc2s1)[C@@H]1CCCN1C(=O)c1cccs1	i
COc1ccc(OC)c(NC(=O)C(=O)NNC(=O)COc2ccc(Br)cc2C)c1	i
Cc1occc1C(=O)Nc1nnc(-c2cccs2)s1	i
CCOC(=O)C1CCCN(Cc2cc(=O)oc3cc(C)ccc23)C1 (stereo not drawn)	i
CC(C)CC(C(=O)NC(=O)NCc1ccccc1)N1C(=O)c2ccccc2C1=O (stereo not drawn)	i
COCCNc1nc(SCC(=O)N2CCN(c3ccccc3)CC2)nc2ccccc12	i
O=C(C1CC1)N1CCc2cc(S(=O)(=O)N3CCN(c4ccccc4)CC3)ccc21	i
NS(=O)(=O)c1ccc(N2C(=O)C(=O)/C(=C(/O)c3ccccc3)C2c2ccc(Cl)cc2)cc1 (stereo not drawn)	i
COc1ccc(CN(C)C(=O)CCN2C(=O)c3ccccc3C2=O)c(OC)c1OC	i

Three entries already listed, arranged by molar mass, rising:
Molecule	CHT allo act
CCOC(=O)C1CCCN(Cc2cc(=O)oc3cc(C)ccc23)C1 (stereo not drawn)	i
CCn1c(SCC(=O)Nc2ccc(F)cc2)nc2ccccc2c1=O	i
CC(C)CC(C(=O)NC(=O)NCc1ccccc1)N1C(=O)c2ccccc2C1=O (stereo not drawn)	i

Only part of the results is shown; most or all hits stand in other tables.
